# Bioassay records from PubChem BioAssay.
# gsp ag = activates gsp, the McCune-Albright syndrome mutation. gsp mutant cells, cAMP HTRF, 30 min; control for the full effect not named in the record. Potency, µM (series often up to 76.9 µM), for inactives: top-dose activation (cAMP increase), most hits filed as activators. 340,000 compounds, 0.13% hits; active = well fitted activation curve with a large enough effect; inconclusive = small, poorly fitted or top-dose-only effect, or another doubt; inactive = no such curve, though single readings can be large or run the other way; cell line not stated here;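 also: phosphodiesterase inhibitor Ro 20-1724 added with compounds to block cAMP breakdown; potency is read from the fitted curve at half-maximal effect; nearly all actives have a fitted effect of over 60% in size; about a fifth of the inactives were tested at one dose only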
#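 Cells in DMEM/10% FBS with G418 were pretreated with compounds in DMSO plus […] (300 uM stock) for 30 min at 37C. cAMP was measured by HTRF (cAMP-d2 plus anti-cAMP antibody-K) after 30 min at room temperature.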
# D2 agonist = activates the human D2 dopamine receptor. P14416. DiscoveRx PathHunter D2 beta-arrestin, luminescence, 90 min; 100% = 57 uM dopamine signal. activation, % (test concentration not listed). 360,000 compounds, 0.084% hits; in the data active = activation above about 40%; inconclusive = about 15% to 40%; inactive = below about 15%; also: compound concentration not given in the record; the text of the record calls up to 30% inactive
# Target sequence (P14416 whole entry, looked up): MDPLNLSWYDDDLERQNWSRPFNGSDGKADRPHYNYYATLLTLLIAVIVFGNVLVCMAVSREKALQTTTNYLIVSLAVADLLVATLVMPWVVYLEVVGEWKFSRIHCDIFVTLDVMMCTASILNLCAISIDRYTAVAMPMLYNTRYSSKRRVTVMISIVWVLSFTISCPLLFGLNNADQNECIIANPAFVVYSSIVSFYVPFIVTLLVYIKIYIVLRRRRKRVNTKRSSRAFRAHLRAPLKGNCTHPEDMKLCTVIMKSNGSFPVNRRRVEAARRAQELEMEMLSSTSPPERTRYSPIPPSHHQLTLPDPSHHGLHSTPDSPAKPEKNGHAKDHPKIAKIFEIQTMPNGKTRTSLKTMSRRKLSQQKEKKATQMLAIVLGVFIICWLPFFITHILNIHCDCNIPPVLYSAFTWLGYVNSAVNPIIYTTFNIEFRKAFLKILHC
#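 Agonist mode: compounds alone added to overnight-plated D2 PathHunter cells for 90 min at 37 C, with 57 uM final dopamine (EC100) defining full response. Beta-arrestin recruitment detected by chemiluminescent reagent, read after 1 h at ambient temperature.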
# ClpP mod = qHTS Assay for Activators of ClpP; ATP-dependent Clp protease proteolytic subunit (Bacillus subtilis (strain 168)), P80244; purified B. subtilis ClpP, FRET peptide cleavage, 20 min; Potency, µM (series often up to 57.5 µM), inactives show top-dose activity change, negative = active; 340,000 compounds, 1.9% hits; AID 651965, 2013; active = well fitted falling curve with a large enough effect; inconclusive = small, poorly fitted or top-dose-only effect; inactive = no such curve, though single readings can be large or run the other way; also: potency is read from the fitted curve at half-maximal effect; the source files actives as falling curves though it sought activators and does not explain the sign; nearly all actives have a fitted effect of over 65% in size; many hits overshoot -100%
# Target sequence (P80244 whole entry, looked up): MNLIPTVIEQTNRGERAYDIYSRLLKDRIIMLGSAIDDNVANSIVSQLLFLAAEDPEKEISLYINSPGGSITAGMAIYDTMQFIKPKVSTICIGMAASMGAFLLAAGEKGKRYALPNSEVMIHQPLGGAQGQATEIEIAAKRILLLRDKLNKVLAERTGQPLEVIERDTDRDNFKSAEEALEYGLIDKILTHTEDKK
#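 Purified B. subtilis ClpP, 10 microg/mL final in Tris/HCl pH8 with KCl, BSA, glycerol and Tween-20, cleaved an Abz/nitrotyrosine-quenched decapeptide. Fluorescence (ex 320, em 430) was read at 0 and 20 min at room temperature. Delta was normalized to 5.8 microM ADEP and DMSO/no-enzyme controls.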
# PINK1 expr mod = changes PINK1 expression. PINK1 immunofluorescence, high-content cytometry, 24 h. Potency, µM (doses to about 76.6 µM), inactives show top-dose activation (PINK1 increase), hits mostly activators. 410,000 compounds, 0.2% hits. AID 624263; active = well fitted activation curve with a large enough effect; inconclusive = small, poorly fitted or top-dose-only effect; inactive = flat fitted curve, though single readings scatter; cell line not stated here;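 also: potency is read from the fitted curve at half-maximal effect; % of control where 0% means no effect; nearly all actives have a fitted effect of over 65% in size; a mitochondrial uncoupler was the plate control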
#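 Fluorescence from anti-PINK1 antibody, together with nuclear and cell stains, was scanned on a laser-scanning cytometer. Before staining, stable-line cells were incubated 24 hours with compounds at 5 concentrations; primary antibody 12 h at 10 degrees C.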
# Menin MLL FP FL = menin-MLL binding inhibition, fluorescein peptide. FP activity change, % at 61.4 µM. Fluorescence polarization, fluorescein-MLL peptide displacement from menin. AID 1766. 290,000 tested, under 10 active; inconclusive = falling polarisation curve, or a change in total fluorescence; inactive = total fluorescence flat and polarisation flat or rising; no compound was filed as active; the % refers to the polarisation; negative = inhibition;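 also: % of control where 0% means no effect; inhibitors lower the polarisation; unlabelled MLL peptide was the positive control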
# Sfp PPTase inh = Sfp phosphopantetheinyl transferase inhibition | Q9F4F7 | Biochemical Sfp PPTase activity, qHTS | Potency, µM, without a hit: max response, negative = inhibition, hits mostly inhibitors | 310,000 compounds, 3.5% hits; active = well fitted inhibition curve with a large enough effect; inconclusive = small, poorly fitted or top-dose-only effect, or another doubt; inactive = no such curve, though single readings can be large or run the other way;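 also: the enzyme is Sfp with the accession as filed and its product quenches rhodamine fluorescence; potency is read from the fitted curve at half-maximal effect; 0% = enzyme reaction without inhibitor and -100% = no enzyme wells; top concentration of the series not given in the record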
#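 Buffer: 50 mM Hepes-Na pH 7.6, 10 mM MgCl2, 0.01% Nonidet P-40, 0.01% BSA. Enzyme 15 nM, pre-exposed to compound 15 min; substrates then added and fluorescence change tracked over 30 min.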
# gsp antag = gsp mutant antagonism; 340,000 compounds, 0.4% hits; gsp-mutant cells, cAMP HTRF, 30 min; control for the full effect not named in the record; Potency, µM (highest dose often 76.9 µM), for the others: at the top dose activity change, negative = inhibition, usual class: inhibitors; AID 624288; active = falling curve of any shape with a large fitted effect; inconclusive = falling curve, mostly with a smaller effect; inactive = flat or rising curve; cell line not stated here;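 also: intracellular cAMP measured with PDE inhibitor Ro 20-1724 present during compound exposure; potency is read from the fitted curve at half-maximal effect; % is scaled to controls: 0 for no effect and ±100 for the full control effect; nearly all actives have a fitted effect of over 65% in size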
#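 Cells, 2000/well, grown 16–24 h in DMEM 10% FBS with 0.5 mg/ml G418, then compounds plus […] (300 uM addition stock), 30 min at 37C. cAMP read by HTRF (cAMP-d2 and anti-cAMP antibody-K in lysis buffer) after 30 min RT.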
# * hit, by the source's call; ? = inconclusive; . = not tested or not shown; & = joins results of further samples; [ ] = dose if it differs, or a comment.
SMILES,gsp ag,D2 agonist,ClpP mod,PINK1 expr mod,Menin MLL FP FL,Sfp PPTase inh,gsp antag
Cc1c(C(=O)NC(=S)NCc2cccnc2)oc2ccccc12,-24.3%[15.4 µM],-0.6,.,3.5%,4.0,10.9%,-6.7%
Cc1ccc(C(O)c2ncc(-c3ccccc3Cl)[nH]2)cc1F (stereo unspecified),.,-3.3,0.6%,1.8%,.,.,.
Cc1ccc(S(=O)(=O)c2c(C)cc(C)nc2Oc2cccc(C(F)(F)F)c2)cc1,-18.3%,0.1,-1.9%,2.3%,3.6,18.3%,-3.9%
COCCOC(=O)C1=C(C)N(c2ccccc2)C(=S)NC1c1ccccc1C(F)(F)F (stereo unspecified),-80.6%[inhibitor],2.2,-2.4%,3.1%,-2.8,16.0%,-9.4%
S=C(NC1CCCC1)N1CCN(c2ccc(Cl)cc2)CC1,2.4%,1.7,.,1.7%,6.5,-3.4%,-17.4%
CCOC(=O)C1=C(C)N(c2ccccc2)C(=O)/C1=C\c1ccco1,-37.4%,-0.2,-1.5%,6.9%,8.6,56.2µM*,1.2%
CNc1nccc(-c2ccc(Cl)cc2)c1C#N,-96.2%[inhibitor],-2.5,.,-2.3%,-3.0,3.8%,4.6%
C=CCC(CC=C)(NC(=O)c1ccccc1)c1ccccc1,-10.0%,-0.6,0.3%,-2.6%,1.2,9.1%,3.5%
CN(C)CCCNc1nc2cc(-c3cnn(C)c3)sc2c(=O)n1C,.,2.2,-19.9%,0.8%,.,.,.
COc1ccccc1OCC(=O)Nc1ccc(S(=O)(=O)N2CCOCC2)cc1,9.9%[15.4 µM],-1.0,.,1.9%,2.7,-2.8%,5.4%
CCOC(=O)Cc1nnc(NC(=O)CSc2ccc(Cl)cc2)s1,-28.3%,-0.5,-2.5%,4.4%[38.3 µM],-0.2,22.8%,7.5%
Cc1ccc(N(C(=O)CCC(=O)Nc2nccs2)C(C(=O)NC(C)(C)C)c2ccc(O)cc2)cc1 (stereo unspecified),5.7%,1.6,.,-0.5%,-1.4,4.5%,1.0%
CCCCNC(c1ccccc1)c1ccncc1 (stereo unspecified),-55.3%[inhibitor],-2.1,1.1%,3.9%[38.3 µM],-3.3,18.6%,-1.5%
Cc1nn(C2CCS(=O)(=O)C2)c(C)c1CN(C)C(=O)c1ccccc1 (stereo unspecified),8.6%,-3.7,0.5%,0.8%,.,.,9.8%
CN(C)C(=O)CN(c1ccc2c(c1)OCO2)S(C)(=O)=O,-0.7%,-1.7,0.3%,4.8%[38.3 µM],4.5,9.5%,-3.0%
C=CCNc1nc(-c2cccs2)c(CC(=O)O)s1,-1.1%[15.4 µM],-0.5,.,1.3%,-0.5,-8.1%,-17.8%
CC(C)OCCCn1c(=N)c(S(=O)(=O)c2ccccc2)cc2c(=O)n3ccccc3nc21,?,-6.3,-14.2%,?,.,-0.6%,-2.4%
COc1ccc(/C=C2\CCn3c2nc2cc(C(=O)O)ccc2c3=O)cc1O,3.9%[15.4 µM],3.0,-6.6%,3.8%,3.8,9.0%,?
Cn1c2c(c(=O)n(C)c1=O)C(c1ccccc1Cl)CC(=O)N2 (stereo unspecified),-40.9%[inhibitor],-1.1,-3.3%,0.0%,-2.9,-1.0%,-6.8%
CCN(CC)C(=O)CSc1nc(O)c(Cc2ccccc2)c(=O)n1-c1ccccc1,-2.2%,-3.4,-2.4%,1.2%,3.1,6.6%,-10.3%
c1ccc(-c2nc3cc4ccccc4cc3[nH]2)nc1,-4.5%[15.4 µM],0.3,1.0%,2.4%,-0.9,-4.8%,-2.4%
COc1ccc(C2/C=C\CN(S(=O)(=O)c3cccs3)CC(=O)N2Cc2ccc(F)cc2)cc1 (stereo unspecified),.,-5.0,-1.0%,0.4%,0.0&7.2,-2.4%&9.9%,-9.5%
Cc1ccc(NC(=O)[C@@H](C)NC(=O)[C@@H]2Cc3ccccc3CN2)cc1,-25.5%,1.1,0.6%,1.0%,.,14.3%,6.6%
CCc1cc(=O)[nH]c(SCC(=O)Nc2cc(C)on2)n1,-10.2%[15.4 µM],-0.4,.,1.3%,.,.,-4.0%
Nc1c(S(=O)(=O)O)cc(NC(=O)c2ccccc2)c2c1C(=O)c1ccccc1C2=O,6.3%,6.5,-0.3%,1.4%,-26.2,?,?
C=CCc1cc(OC)ccc1OCC(O)CN1CCN(c2ccc(OC)cc2)CC1 (stereo unspecified),-13.4%,-3.1&-6.0,-2.1%,22.9%[38.3 µM],-1.6&-1.1,-10.9%&-5.1%,-5.3%&-9.2%
Cn1c(=O)cc(SCC(=O)Nc2ccccn2)c2ccccc21,13.0%,-2.8,-5.7%,-1.9%,2.1,-16.2%,2.2%
Cc1nnc(N(C)C(=O)c2ccccn2)s1,3.1%,1.0,-11.9%,1.5%,1.8,4.6%,-9.9%
CC[C@]12c3[nH]c4ccc(OC)cc4c3CCN1C(=O)C(CC(=O)NCCCn1ccnc1)C[C@@H]2C(=O)N1CCN(C(=O)c2ccco2)CC1 (stereo partly specified),.,-2.4,0.5%,0.8%,.,.,8.9%
COc1ccc(C(CNC(=O)COc2ccccc2-c2ccccc2)N2CCOCC2)cc1 (stereo unspecified),-4.8%,1.7,-0.1%,-0.5%,0.2,6.2%,-19.1%
c1csc(Cn2c(-c3cccs3)nc3ccccc32)c1,6.4%,2.3,31.6µM*,-4.8%[38.3 µM],0.7,?,?
COc1ccc(OCC(=O)N2CCN(C(=O)COc3ccc(Br)cc3)CC2)cc1,-4.3%,-1.3,0.7%,.,-1.0,6.8%,-8.6%
COc1cc([C@H]2OC[C@H]3[C@@H]2CO[C@@H]3c2ccc(O[C@H]3O[C@H](CO)[C@@H](O)[C@H](O)[C@H]3O)c(OC)c2)ccc1O[C@@H]1O[C@H](CO)[C@@H](O)[C@H](O)[C@H]1O,.,-5.1,-4.1%,-1.9%,.,.,-2.8%
O=C(COC(=O)c1ccco1)NCC1CCCO1 (stereo unspecified),-0.8%,-1.4,0.7%,2.4%,3.6,-9.2%,14.7%
COc1ccc(-c2coc(CCC(=O)N3CCN(c4cc(C)ccc4C)CC3)n2)cc1,.,-0.8,0.2%,-0.8%,.,.,-18.2%
Cc1cccc(CCNC(=O)C2CCCN(c3ncnc4c3nc3n4CCCCC3)C2)c1 (stereo unspecified),9.6%,-0.6,.,0.7%,1.3,5.7%,-7.9%
Cc1onc(-c2ccccc2)c1C(=O)NC(C)C1CCCO1 (stereo unspecified),20.6%,-0.9,0.2%,3.8%[38.3 µM],1.8,18.9%,7.0%
CC12CC3(C)CC(C)(C1)CC(C(N)=O)(C2)C3,-4.4%,1.8,-1.1%,1.8%,-6.5,-32.1%,9.6%
COc1cccc(-c2csc3nnc(SCC(=O)c4ccc(NC(C)=O)cc4)n23)c1,-61.7%[inhibitor],1.0,-1.0%,4.2%[38.3 µM],0.7,15.6%,5.6%
Cc1ccc(C(=O)N2CCN(c3ccc([N+](=O)[O-])cc3-n3cccc3)CC2)cc1,-14.5%[15.4 µM],-4.6,1.1%,-0.6%,1.4,0.6%,-10.2%
C=CCN1C(=O)CN=C1Nc1cc(C)cc(C)c1,6.5%,-1.7,-2.0%,0.5%,3.8,-11.8%,-34.0%
O=C(c1ccc(F)cc1)c1ccc(N2CCCCC2)cc1,9.5%,1.1,-11.8%,-0.4%,-9.1,-17.7%,-6.5%
COc1ccc(/C=C2\SC(=S)N(CCCC(=O)NC3CCCC3)C2=O)cc1OC,?,0.6,0.5%,4.5%,.,.,-9.0%
CCOC(=O)Nc1nc(-c2ccc(F)cc2F)cs1,-21.8%,-3.0,-1.0%,4.1%,8.1,8.4%,-2.4%
O=C(CCc1nc(-c2ccccn2)no1)NCc1ccc2c(c1)OCO2,-3.6%[15.4 µM],-3.8,.,0.1%,-1.4,8.7%,16.6%
Cc1cc(C)cc(CC(=O)N2CCC2(C)C(=O)NS(=O)(=O)c2ccc(Cl)s2)c1 (stereo unspecified),.,8.1,-2.7%,-0.1%,.,.,.
Cc1ccn2cc(CNS(=O)(=O)c3ccc4ccccc4c3)nc2c1,-1.6%[15.4 µM],-5.5,-2.5%,-0.6%,.,6.4%,2.5%
COc1ccccc1NC(=O)Nc1ccc(N2CCOCC2)cc1,-24.3%,-1.9,.,-0.4%,1.1,-0.7%,-7.9%
Nc1cc(Nc2ccc(Br)cc2)nc(N)n1,1.9%[15.4 µM],4.1,.,1.2%,?,?,10.2%
CN1CCN(C(=O)c2ccccc2NC(=O)c2ccccc2Br)CC1,-37.0%[inhibitor],2.5,1.1%,2.8%,.,17.2%,10.7%

# (continued)
SMILES,gsp ag,D2 agonist,ClpP mod,PINK1 expr mod,Menin MLL FP FL,Sfp PPTase inh,gsp antag
O=C(CCc1nnc(CCCc2ccccc2)o1)NCCc1ccccc1,5.7%[15.4 µM],-1.1,.,8.3%,0.0,4.3%,-0.3%
C[C@@H]1CN([C@H](C)CO)C(=O)CCCn2nncc2CO[C@H]1CN(C)Cc1cccnc1,24.7%,-3.8,-0.5%,0.2%,.,.,.
COc1ccc(C(=O)Nc2ccc3c(c2)nc(CN2CCCC2)n3C)cc1,?,-3.6,-2.5%,2.2%,-5.0,14.1%,-2.4%
Cc1ccc(-n2nnnc2SCC(=O)NCC2(N3CCOCC3)CCCCC2)cc1,3.9%[15.4 µM],1.6,-0.7%,-1.8%,.,.,-1.1%
O=C(CSc1nnnn1C1CCCC1)Nc1ccccc1F,-10.0%,-1.5,-1.1%,-0.3%,-5.8,2.2%,4.4%
COc1ccc(OC)c(NC(=S)N(CCc2c(C)[nH]c3ccccc23)Cc2cccs2)c1,3.4%,2.4,-1.5%,5.9%,7.8,14.2%,-8.6%
Cc1ccc(N(C)C(=O)n2cnc3ccccc32)cc1,8.8%[15.4 µM],-2.6,.,0.6%,-2.1,-1.8%,2.7%
COc1ccccc1-c1sc2cc3c(cc2c1C#Cc1cncn1C)OCO3,-16.9%,-6.3,4.2%,0.2%,.,.,?
CCCCOC(=O)C(C#N)c1nc2ccccc2nc1N1CCN(Cc2ccc3c(c2)OCO3)CC1 (stereo unspecified),-15.7%,1.4,-8.0%,7.3%,?,8.5%,-2.4%
O=C(CCn1nnc2ccccc21)N1CCN(c2ccccc2)CC1,13.4%[15.4 µM],1.9,60.5%,-0.9%,6.3,11.1%,-2.6%
